Assay outcomes deposited in PubChem BioAssay by several laboratories.
MT1-MMP act inh = blockers of MT1-MMP proenzyme processing, primary screen, HT1080 RFP-PRO-GFP cells, GFP/RFP fluorescence; GFP/RFP ratio fluorescence, overnight; percent of plate control window, DMSO zero; GFP/RFP ratio change, % at 20 µM; 0.061% of 360,000 active;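 active = GFP/RFP ratio change of at least 30% with cell ATP level not reduced by more than half and red fluorescence within 50% of control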; also: strong numbers were not always called active
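Assay system: HT1080 cells carrying an RFP-PRO-GFP reporter | Dosing: Single dose of 20 µM compound, 1% DMSO final | Incubation: Cells overnight before dosing, compound overnight, 37 °C, 5% CO2 | Evaluation: GFP/RFP fluorescence ratio | Control set: DMSO and RFP-L50D-GFP cell wells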
PABP FP inh = PABP poly(A) RNA binding inhibitors, primary screen, biochemical, fluorescence polarization, uHTS; Polyadenylate-binding protein 1 (Homo sapiens), P11940; inhibition, % at 35 µM; 1% of 290,000 active; AID 2014, 2009;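 active = 50% or more with normal probe brightness, or confirmed in later tests; inconclusive = above 50% with abnormal brightness, or retests that disagree; inactive = below 50% or failed in later tests; about a fifth of its hits are not listed in these tables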;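 also: calls also rest on retests at 20 µM and on dose response follow-up; controls were probe without protein and protein plus probe with vehicle; some compounds called inactive have numbers as strong as hits; many hits fall short of the cut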
Target sequence (P11940 whole entry, looked up): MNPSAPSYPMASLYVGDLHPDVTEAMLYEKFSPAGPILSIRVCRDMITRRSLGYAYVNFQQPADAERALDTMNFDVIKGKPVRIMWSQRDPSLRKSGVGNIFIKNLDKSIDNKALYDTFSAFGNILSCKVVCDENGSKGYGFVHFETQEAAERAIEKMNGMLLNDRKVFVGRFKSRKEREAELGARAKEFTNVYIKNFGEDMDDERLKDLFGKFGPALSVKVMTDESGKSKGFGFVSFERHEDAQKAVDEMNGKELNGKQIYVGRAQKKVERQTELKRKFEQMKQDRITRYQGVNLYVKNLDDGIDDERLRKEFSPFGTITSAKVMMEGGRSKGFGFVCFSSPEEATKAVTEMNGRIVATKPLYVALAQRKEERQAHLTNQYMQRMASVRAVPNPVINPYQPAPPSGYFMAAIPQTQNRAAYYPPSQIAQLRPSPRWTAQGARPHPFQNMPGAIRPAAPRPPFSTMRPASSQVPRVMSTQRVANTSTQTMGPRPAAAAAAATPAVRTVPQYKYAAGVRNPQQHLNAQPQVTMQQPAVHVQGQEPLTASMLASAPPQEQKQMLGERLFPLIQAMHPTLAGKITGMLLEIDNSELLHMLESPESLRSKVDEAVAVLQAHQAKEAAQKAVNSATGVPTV
eIF4H FP inh = human eIF4H binding inhibitors, primary screen, translation initiation inhibitor project, biochemical, uHTS, fluorescence polarization; Eukaryotic translation initiation factor 4H (Homo sapiens), Q15056; eIF4H fluorescence polarization binding assay; inhibition, % at 35 µM; 0.94% of 290,000 active; AID 2012, 2009;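 active = 50% or more with normal probe brightness, or confirmed in later tests; inconclusive = above 50% with abnormal brightness, or retests that disagree; inactive = below 50% or failed in later tests; about a fifth of its hits are not listed in these tables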;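 also: calls also rest on retests at 20 µM and on dose response follow-up; 0% = protein and probe with vehicle and 100% = probe without protein; strong numbers were not always called active; many hits fall short of the cut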
HIV Env fusion = inhibitors of HIV-1 Env-driven cell-cell fusion, primary screen, HeLa-JRFL effector, CEM21 target cells, luciferase; inhibition, % at 12.3 µM; 1.1% of 360,000 active;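 active = mean replicate inhibition score of at least 50 and every replicate individually at or above 50; inconclusive = only one of the two criteria met; inactive = mean below 50 and not all replicates reaching 50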;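 also: 0% = plate neutral controls and 100% = maraviroc near 300 nM; one replicate is shown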
Rce1 inh = yeast Rce1p protease inhibitors, primary screen, biochemical, fluorescence, cell-free homogeneous; CAAX prenyl protease 2 (Saccharomyces cerevisiae (strain ATCC 204508 / S288c)), Q03530; yeast membranes, quenched prenylated peptide cleavage fluorescence; calls only; 0.27% of 290,000 active;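 active = fall in fluorescence gain of 50% or more versus controls, with final raw signal at or below 3038400; inconclusive = same 50% fall but final raw signal above 3038400; inactive = fall in fluorescence gain under 50%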;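 also: plate controls were neutral control wells for no effect and wells lacking membranes for full effect; tested at 10 µM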
Target sequence (Q03530 whole entry, looked up): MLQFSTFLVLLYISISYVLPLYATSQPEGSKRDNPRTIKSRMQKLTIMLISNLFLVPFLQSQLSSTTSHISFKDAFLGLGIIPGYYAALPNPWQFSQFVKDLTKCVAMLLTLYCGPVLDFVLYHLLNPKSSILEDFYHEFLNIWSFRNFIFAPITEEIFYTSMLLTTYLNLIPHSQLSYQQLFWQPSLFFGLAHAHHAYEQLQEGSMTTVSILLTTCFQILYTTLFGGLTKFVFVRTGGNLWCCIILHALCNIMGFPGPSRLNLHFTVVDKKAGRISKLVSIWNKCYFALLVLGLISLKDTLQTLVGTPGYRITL
UUG fidelity = modulators of yeast start codon fidelity, primary screen, whole organism, S. cerevisiae, single point, plate reader; activity score, % at 18.7 µM; 0.13% of 350,000 active; S. cerevisiae UUG-firefly luciferase reporter, luminescence/redox ratio; AID 602363, 2012;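 active = replicate mean at a twofold rise or more, about +100% in these data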;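 also: firefly luciferase made from a UUG start codon reports start codon fidelity; reporter light over untreated wells divided by growth signal over untreated wells; some hits fall short of that in this replicate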
CSC inhib = cancer stem cell viability inhibitors, primary screen, luminescence. cancer stem cell-like cells viability. inhibition, % at 7.5 µM. 1.1% of 300,000 active;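 active = mean at 75% or more and at least half the replicates too; inconclusive = mean and replicates disagree; tested in HMLE shEcad cells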;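 also: 0% = median of negative and 100% = median of positive control wells; the first replicate is given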
eIF4H FP inh retest = further read-out of eIF4H FP inh, marked with its call; inhibition, %; compound at 20 µM; confirmation average;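 mean of two retest wells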
PABP FP inh retest = also measured in PABP FP inh; calls as there; inhibition, %; compound at 20 µM; confirmation repeats;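 mean of two retest wells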
MT1-MMP act inh RFP = recorded beside MT1-MMP act inh, whose call it bears; RFP signal change, %; measured here: RFP expression control read;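 0 = vehicle wells; hits needed this value within 50% of zero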
* marks the source's active call; other numbers are inactive results; i = inactive; ? = inconclusive; · = no result given; & = joins results of further samples. This is a subset (hit frequency here may not be typical).

SMILES	MT1-MMP act inh	MT1-MMP act inh RFP	PABP FP inh	eIF4H FP inh	HIV Env fusion	Rce1 inh	UUG fidelity	CSC inhib	others
COc1ccc(N2CCN(C(=O)CN=C3NS(=O)(=O)C(c4ccc(C)cc4)=C3C)CC2)cc1	13	-10	2	-8	45	·	-7	-1
CCOC(=O)c1ccc(NC(=S)N2CCCC2)cc1	-1	3	-7	-1	4	i	·	-3
Cc1ccc(CCN2CC(C(=O)NCc3cccnc3)CC2=O)cc1 (centres undefined)	2	-1	·	·	-8	i	-34	·
CCOc1ccc(CCNC(=O)CCCn2c(=O)c3cccn3c3cccnc32)cc1OCC	1	2	11	2	6	i	-1	-5
O=C(CN1C(=O)c2ccccc2C1=O)Nc1nccs1	2	6	3	-2	-12	i	·	-8
c1ccc(Sc2ccccc2CN2CCCC2)cc1	2	3	·	·	-11	i	2	-22
Cc1nc([N+](=O)[O-])nn1C12CC3CC(CC(Br)(C3)C1)C2	-1	2	-3	-6	·	i	-14	-2
COc1ccc(-c2nn(C)c(=O)c3ccccc23)cc1NC(=O)COc1ccc(C)cc1	6	-20	-12	10	57*	i	-12	1
Cc1cc(C)cc(NC(=O)C2(c3cccs3)CCOCC2)c1	-3	-3	-10	5	·	i	-16	·
NC(=O)c1ccccc1NC(=O)Cc1cccs1	-3	1	3	-7	-9	i	-7	-11
CCOC(=O)Cn1c(=O)oc2cc(S(=O)(=O)NCCc3ccc(OCC)c(OCC)c3)ccc21	-5	3	-3	1	-16	i	-15	-5
Cc1cc(C)c(S(=O)(=O)c2ccccc2)c(OC(=O)c2c(Cl)cccc2Cl)n1	-2	-2	1	-5	6	i	-2	11
C/C(N)=C(/C#N)C(=O)CSc1nnc(COc2cc(C)ccc2C)o1	-1	3	-1	0	·	i	·	7
CC(=O)Nc1ccccc1C(=O)N1CC2(C)CC1CC(C)(C)C2 (centres undefined)	1	6	2	2	-11	i	-49	-12
O=C(O)c1ccccc1C(=O)c1cccc2c(Br)cccc12	0	2	·	·	-17	·	-1	·
COc1ccc(-c2cc3c(=O)n(CC(=O)NCc4cccnc4)ncn3n2)cc1	-2	-6	7	-10	-7	i	-23	-4
Cc1ccc(C)n1Cc1ccccc1Cl	0	2	-12	-4	8	i	·	-10
COc1ccc(CCNC(=O)C2(C)CCC(=O)N2Cc2ccc(C)cc2)cc1OC (centres undefined)	-3	-1	1	-8	9	i	-7	-17
CN1CCN(c2ccc(CNC(=O)c3cc4ccccc4o3)cc2)CC1	4	-1	-9	-10	-1	i	·	35
CSc1ncccc1C(=O)Nc1ccncc1	-3	0	-3	-4	-8	i	-12	3

Molecules from the list above containing an aryl thioether with sulfur outside any ring, in the order listed:
SMILES	MT1-MMP act inh	MT1-MMP act inh RFP	PABP FP inh	eIF4H FP inh	HIV Env fusion	Rce1 inh	UUG fidelity	CSC inhib	others
c1ccc(Sc2ccccc2CN2CCCC2)cc1	2	3	·	·	-11	i	2	-22
C/C(N)=C(/C#N)C(=O)CSc1nnc(COc2cc(C)ccc2C)o1	-1	3	-1	0	·	i	·	7
CSc1ncccc1C(=O)Nc1ccncc1	-3	0	-3	-4	-8	i	-12	3

(more compounds)
SMILES	MT1-MMP act inh	MT1-MMP act inh RFP	PABP FP inh	eIF4H FP inh	HIV Env fusion	Rce1 inh	UUG fidelity	CSC inhib	others
C[C@@H]1CN([C@@H](C)CO)C(=O)c2cc(Br)cnc2O[C@H]1CN(C)S(=O)(=O)c1cccs1	-1	0	·	·	-2	·	2	·
CC1CC(C)CN(C(=O)COC(=O)c2ccc3ccccc3n2)C1 (centres undefined)	-2	3	·	·	1	·	-6	4
Cc1cc(C)n(-c2nc3ccccc3nc2Nc2ccc3c(c2)OCO3)n1	-1	3	-6	13	-12	i	-6	1
S=C(NCCCN1CCOCC1)N1CCN(c2nc(-c3ccccc3)cs2)CC1	3	-3	6	-7	8	i	-25	41
CCC(=O)Nc1nonc1-c1nc2ccccc2n1Cc1cccc2ccccc12	9	-9	-4	-1	·	i	-16	70
CC(C)OC(=O)CSc1nnnn1-c1ccc2c(c1)OCCO2	2	3	0	-3	-27	i	-5	·
O=C1C2CCCN2C(=S)N1C1CCCCC1 (centres undefined)	2	1	2	-10	4	i	-10	1
O=C1OC(c2ccccc2)=C/C1=C/N1CCOCC1	-7	0	-2	-4	·	i	-3	3
Cc1cccnc1NC(=O)C(c1ccccc1)c1ccccc1	4	4	-7	-16	-8	i	1	-7
CC(C)Nc1c([N+](=O)[O-])c(=O)oc2ccccc12	0	-1	-6	-7	5	i	·	-7
CC(c1ccccc1)C(Cc1nc2ccccc2[nH]1)c1nc2ccccc2[nH]1 (centres undefined)	·	·	12	2	·	i	·	7
C/C(=N\NC(=O)C1CC1c1ccccc1)c1cccc([N+](=O)[O-])c1 (centres undefined)	6	0	-8	-3	·	i	-15	4
C=CCn1c(=S)sc2c(=O)[nH]c(C)nc21	1	1	5	3	-13	i	-10	-1
CC(C)(C)NC(=O)Cn1c(=O)n(CC(=O)NC(C)(C)C)c2ccccc21	8	10	-2	-6	14	i	·	10
O=C(CSc1nc(=O)[nH]c2c1CCCC2)Nc1cc(C(F)(F)F)cc(C(F)(F)F)c1	-6	-19	·	·	-4	i	-15	-6
CC(=O)N1CCCc2cc(S(=O)(=O)N3CCCC(C(=O)Nc4cccc(C)c4)C3)ccc21 (centres undefined)	-1	-14	5	-15	5	i	-6	-11
COc1ccccc1NC(=O)c1ccc(C(=O)Nc2ccccc2OC)nc1	2	-2	0	-2	-66	i	-19	7
O=C(CCNS(=O)(=O)c1cccs1)N1CCCCCC1	1	1	-10	-5	·	i	-18	-11
COc1ccc(NC(=O)COc2ccc(C)cc2)c([N+](=O)[O-])c1	·	·	-1	59	-54	i	·	-7	eIF4H FP inh retest=16;PABP FP inh retest=25
CCN(CC(=O)NCc1ccc(Cl)cc1)C(=O)CSc1ccccc1	-3	0	·	·	7	i	7	-9
O=C(O)CNCC1COc2ccccc2O1 (centres undefined)	1	4	16	-8	-25	i	-1	-6
COc1cc2[nH]c(C(=O)NCc3ccccc3)cc2c(OC)c1OC	8	7	3	-14	12	i	-11	-7
O=C(NCCN1CCOCC1)c1cccc(S(=O)(=O)N2CCCCC2)c1	0	0	-8	-5	15	i	-14	-2
Cc1ccc(-c2[nH]ncc2/C=N/n2c(COc3ccccc3)nc3ccccc3c2=O)cc1	-3	-8	-15	-9	-3	i	·	21
COc1ccc(S(=O)(=O)N2CCC(C(=O)NC3(C)CCS(=O)(=O)C3)CC2)cc1OC (centres undefined)	1	1	·	·	-6	i	-24	·
CCc1ccc(OC)c(-c2csc(N)n2)c1	1	0	-5	-3	3	i	·	-18
C[C@@H]1C(=O)O[C@H]2[C@H]1CC[C@@]1(C)C(=O)C=C[C@@](C)(O)[C@H]21	-7	0	13	-8	1	i	3	-19
CCCCN(CC)C(=O)Cc1ccccc1OC	4	4	-5	6	·	i	-2	-18
Cc1sc2nc(SCC(=O)NCCCO)n(-c3ccccc3)c(=O)c2c1C	-2	2	-1	4	-59	i	-10	6
CS(=O)(=O)c1ccc(NC(=O)CN2C(=O)C3CCCCC3C2=O)cc1 (centres undefined)	-1	0	4	-7	-3	i	-7	-16
O=S1(=O)c2ccccc2OC(COCc2ccccc2)CN1Cc1ccccc1 (centres undefined)	0	-6	·	·	-40	·	-21	·
CCOc1ccc(-n2c(SCc3cc(=O)oc4cc(C)c(C(C)C)cc34)nnc2-c2cccnc2)cc1	-6	-18	3	7	-17	i	1	-3
COC(=O)C1C(=O)NCC1c1ccc(OC)cc1 (centres undefined)	0	0	-3	2	-8	i	-7	-8
CC(=C/c1ccccc1)/C=N/n1c(C)n[nH]c1=S	-4	-2	-2	4	59*	i	-12	-11
CCOC(=O)CNC(=O)N1CCC(CCOc2ccccc2)(C(=O)OCC)CC1	4	3	16	10	-32	i	5	5
N#Cc1nc(-c2cccs2)oc1N1CCOCC1	-3	0	3	-1	·	?	-22	-28
COc1ccc(Cl)cc1-c1nc(SCC(=O)NC(C)C)n[nH]1	·	·	-4	5	20	i	-15	-14
COc1ccc(OCC(=O)NNC(=O)c2ccc3c(=O)n4c(nc3c2)CCC4)cc1	0	0	7	1	-3	i	6	-7
CCOCc1nnc(NC(=O)c2cc(Cl)ccc2OC)s1	-2	-3	5	-3	·	i	-2	-9
CCOc1cc(C(=O)Nc2cc(C)ccc2OC)ccc1OCC(=O)N1CCCCC1	·	·	-4	6	-9	i	-27	13
COc1ccc2c(c1)CCc1cn3ncc(C#N)c3nc1-2	-1	-1	-4	11	45	i	·	-13
CSCCC(NC(=O)c1ccccc1Cl)C(=O)N1CCCCC1 (centres undefined)	5	1	·	·	·	·	-14	9
C[C@H](CO)N1C[C@H](C)[C@@H](CN(C)Cc2ccc(Oc3ccccc3)cc2)Oc2ccc(NC(=O)Cn3cnnn3)cc2C1=O	4	2	·	·	-5	·	8&-17	-12
Cn1c(=O)c2c(nc(NC3CCCCC3)n2CC(O)COc2ccccc2)n(C)c1=O (centres undefined)	2	1	-13	-10	·	i	5	5
COc1ccccc1N1C(=O)c2cccc3c(C(=O)O)ccc(c23)C1=O	4	4	16	0	-3	i	-16	-13
O=C(O)c1ccc2c(c1)C(=O)N(CCc1c[nH]c3ccccc13)C2=O	-6	0	22	1	-16	i	-6	0
O=C(NC(=S)Nc1ccccc1N1CCN(C(=O)c2ccccc2)CC1)c1cccs1	-6	-6	-5	-7	-3	i	·	3
Cc1cc(C)c2c(N)c(C(=O)Nc3ccc([N+](=O)[O-])cc3)sc2n1	4	3	4	23	0	i	-14	-3
FC(F)(F)c1nc(SCc2ccc(Cl)cc2Cl)n[nH]1	-2	-6	10	-8	-5	i	·	·
Cn1c(-c2ccc(F)cc2)cnc1SCC(=O)NNC(=O)Cc1ccccc1	2	0	5	-2	21	i	·	7
O=C(O)c1cc(S(=O)(=O)N2CCCCC2)ccc1F	3	2	-6	-4	-32	i	1	4
O=C(C1CCCN(S(=O)(=O)c2ccc(F)cc2)C1)N(Cc1cccs1)C1CC1 (centres undefined)	-4	-12	-4	2	·	i	6	·
COc1ccc(/C=N/NC(=S)Nc2cc(S(=O)(=O)N3CCOCC3)ccc2N2CCOCC2)cc1O	-4	-6	9	-3	18	i	·	29
COc1ccc(C(C(=O)NC2CCCC2)N(C(=O)c2snc(C(N)=O)c2N)c2cccc(O)c2)cc1 (centres undefined)	-1	-1	23	68*	·	i	-14	-10	eIF4H FP inh retest=78*;PABP FP inh retest=42
Cc1ccccc1NC(=O)CCc1c(C)nn(-c2ccc(N3CCOCC3)nn2)c1C	3	4	4	-4	-8	i	-13	-13
Cc1cccc(NC(=O)C2CC(=O)n3cnnc3S2)c1 (centres undefined)	6	9	5	-14	·	i	-12	-4
Cc1cccc(N(CC(=O)NCc2ccco2)C(=O)CNS(=O)(=O)c2ccc(F)cc2)c1	1	3	-7	1	10	i	2	-12
